Assay outcomes deposited in PubChem BioAssay by several laboratories.
GALR2 agonist: GALR2 receptor agonists, primary screen, cell-based; Galanin receptor type 2 (Homo sapiens), O43603; GALR2-expressing cells, agonist activation read-out; activation, %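 (tested at 5 µM)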; 0.48% of 140,000 active; AID 803, 2007;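 active = above mean plus 3 SD of all compounds, about 5% in these data, not always enough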;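 also: 0% = vehicle buffer wells and 100% = reference agonist at full effect; tested in CHO reporter cells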
Target sequence (O43603 whole entry, looked up): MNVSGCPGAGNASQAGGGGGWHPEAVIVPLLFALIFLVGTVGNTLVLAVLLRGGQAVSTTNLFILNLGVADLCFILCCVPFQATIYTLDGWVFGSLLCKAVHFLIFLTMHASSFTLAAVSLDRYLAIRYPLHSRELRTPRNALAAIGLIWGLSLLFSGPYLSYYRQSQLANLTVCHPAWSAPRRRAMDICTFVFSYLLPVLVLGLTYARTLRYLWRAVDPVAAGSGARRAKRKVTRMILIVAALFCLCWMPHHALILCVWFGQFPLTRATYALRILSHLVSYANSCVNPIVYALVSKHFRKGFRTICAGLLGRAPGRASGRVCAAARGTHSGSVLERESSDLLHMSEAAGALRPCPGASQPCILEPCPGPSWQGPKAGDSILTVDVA
RGS16-Gao: modulators of RGS16 binding to Galphao, primary screen, biochemical, human proteins, multiplexed bead flow cytometry. bead-based flow cytometry RGS16-Galphao binding, fluorescence; actives lie on both sides. binding response (% of control), % at 10 µM. 0.38% of 220,000 active. AID 1441, 2008;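 active = below 25% or above 175%, edge rows of some plates excepted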;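 also: Galphao activated by GDP with aluminum fluoride before binding; 100% = wells without compound and 0% = beads without RGS; some results beyond the cut were filed as inactive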
Target sequence (O15492 whole entry, looked up): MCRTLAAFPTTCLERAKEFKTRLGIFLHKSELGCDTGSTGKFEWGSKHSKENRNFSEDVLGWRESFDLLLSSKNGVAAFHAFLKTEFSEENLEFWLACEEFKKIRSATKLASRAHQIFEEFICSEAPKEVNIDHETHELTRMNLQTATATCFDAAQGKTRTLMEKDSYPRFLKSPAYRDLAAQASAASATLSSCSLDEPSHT
Target sequence (P09471 whole entry, looked up): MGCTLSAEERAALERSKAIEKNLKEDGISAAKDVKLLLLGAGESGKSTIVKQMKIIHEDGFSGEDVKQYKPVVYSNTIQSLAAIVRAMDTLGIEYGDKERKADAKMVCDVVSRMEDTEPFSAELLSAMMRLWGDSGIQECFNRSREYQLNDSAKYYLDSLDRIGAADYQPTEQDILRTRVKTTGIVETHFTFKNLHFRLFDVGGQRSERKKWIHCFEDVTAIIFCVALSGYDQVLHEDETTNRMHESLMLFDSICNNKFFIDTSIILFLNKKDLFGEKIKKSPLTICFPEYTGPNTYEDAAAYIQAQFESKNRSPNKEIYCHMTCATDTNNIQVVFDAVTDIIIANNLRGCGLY
INS promoter inh: inhibitors of insulin promoter-driven GFP, primary screen, imaging, TRM-6 cells (human fetal islet line), eGFP reporter, cell count; reporter expression induced with tamoxifen; inhibition, % at 2 µM; 0.9% of 130,000 active;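 active = inhibition above the mean plus 3 SD, with well images judged a real hit on visual review, cut at about 60% in these data, passing the limit was not always enough; inconclusive = inhibition over the cutoff but images rejected on review; inactive = inhibition not above the cutoff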
HSV augment: enhancers of HSV replication in host cells, fold increase, host cell viability. HSV replication augmentation in cells. maximum fold increase. 0.005% of 220,000 active. AID 1956, 2009;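 active = peak rise of 1.5-fold or more in the series; inconclusive = self-fluorescent or not available for retest; tested in PC3 cells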;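 also: first round at 10 µM; read as green reporter fluorescence; hits show the peak of a series up to 25 µM; 1 = signal of infected wells without compound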
PKD1 inh: inhibitors of human PKD1 kinase, biochemical, fluorescence polarization. Serine/threonine-protein kinase D1 (Homo sapiens), Q15139. PKD1 kinase fluorescence polarization assay. inhibition, %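 (about 10 µM by stock and volumes)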. 0.056% of 200,000 active. AID 797, 2007;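 active = inhibition of 50% or more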;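 also: controls were vehicle for no effect and a reference inhibitor for full effect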
INS promoter inh cell count: second read-out of INS promoter inh, no call of its own (marks repeat the call); normalized cell count, %; measured here: cell count, toxicity; reference of the scale not given here;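 cells exposed to compound for 48 h; stained nuclei by imaging scaled within each plate; lower means fewer cells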
HSV augment primary fold: further read-out of HSV augment, marked with its call; fold increase; compound at 10 µM; measured here: primary screen fold increase 10 uM; tested in PC3 cells;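 GFP signal in the first replicate; 1 = infected wells without compound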
* hit, by the source's call; i = inactive; ? = inconclusive; . = not tested or not shown.

SMILES	GALR2 agonist	RGS16-Gao	INS promoter inh	INS promoter inh cell count	HSV augment	HSV augment primary fold	PKD1 inh
O=S(=O)(c1ccc2ccccc2c1)N1CCN=C1SCc1cccnc1	.	100	-100	101	.	.	-8
CC(C)(C)NC(=O)C(=O)NC(=O)c1c(F)cccc1Cl	.	97	.	.	i	1	.
COc1ccccc1N=c1oc2c(OC)cccc2cc1C(=O)NCc1ccco1	-4.0	97	.	.	i	0.97	-5
C/C=C(/C)C(=O)Nc1cccc(C2=NOC3(C2)C[C@@H](C(N)=O)N(C(=O)c2ccc(OC)cc2)C3)c1 (some centres not stated)	.	98	.	.	i	0.85	.
COC(=O)CCC(=O)N1CCCC(CO)(Cc2ccccc2C)C1 (configuration not stated)	.	108	13	153	i	0.99	-11
O=C(CSc1nnc(NC(=O)c2ccccc2F)s1)Nc1ccccc1F	.	98	.	.	i	0.98	5
O=C(N/N=C/c1ccc[nH]1)c1ccccc1OCc1ccc(F)cc1	.	105	.	.	i	1	.
O=C(Cc1ccccc1Cl)Nc1nc2ccccc2[nH]1	.	100	.	.	i	1.1	.
Clc1ccccc1Nc1nnc(-c2ccncc2)s1	0.6	102	-67	106	i	0.94	12
COc1ccc(CC(=O)OCc2cc3ccccc3[nH]c2=O)cc1	-0.4	102	.	.	i	0.93	-3
CC1=CC(C)(C)N=C(NC#N)N1	-1.6	77	9	57	i	0.88	-10
COc1cc(OC)cc(C(=O)Nc2nc3ccccc3[nH]2)c1	-3.0	101	-9	111	i	0.89	-3
O=C(C1=C[C@H](C2CC2)C[C@H](OCCCCO)O1)N1CCN(Cc2ccc3c(c2)OCO3)CC1	.	100	.	.	i	1.1	5
CCCc1nc(SCC(=O)N2CCC(Cc3ccccc3)CC2)c2c(=O)n(C)c(=O)n(C)c2n1	-2.7	95	.	.	i	0.78	5
c1ccc(-c2noc(COc3ccc4c(c3)OCO4)n2)cc1	-1.9	102	10	151	i	1.1	-11
CC(=O)c1ccc(N/N=C2/CCCNC2=O)cc1	.	104	.	.	i	0.98	.
CCCN1C2=C(C(=O)CCC2)C(c2ccc(O)c(Br)c2)C2=C1CCCC2=O	-1.1	86	29	108	i	0.97	-4
Cc1c(N=C2C(=O)Nc3ccccc32)c(=O)n(-c2ccccc2)n1C	-3.9	96	.	.	i	1.1	-4
CC1=CC2=NC(=O)/C(=C\c3cccn3CCOc3cc(C)cc(C)c3)C(=N)N2O1	-0.5	73	-27	71	i	0.86	-10
COCCNS(=O)(=O)c1ccc2c3c(cccc13)C(=O)N2C	.	103	.	.	i	1.1	1
CC(C)(O)P(C)(=O)c1ccccc1 (configuration not stated)	-0.6	105	.	.	i	1	-13
Cc1nn(-c2ccccc2)c(=S)c2ccccc12	0.0	37	38	107	i	0.97	-17
COc1ccc(NC(=O)CSc2nnc(C3CCCCC3)o2)c(OC)c1	-0.9	99	29	101	i	0.76	-9
CCOC(=O)c1[nH]c2ccc(OC)cc2c1NC(=S)N1CCN(c2ccccc2OC)CC1	-0.9	42	13	67	i	1.1	-11
O=C(O)CCNS(=O)(=O)c1ccccc1Br	.	124	-27	73	i	1	-4

Other records.
SMILES	GALR2 agonist	RGS16-Gao	INS promoter inh	INS promoter inh cell count	HSV augment	HSV augment primary fold	PKD1 inh
N/C(Cc1cccs1)=N\OC(=O)COc1ccccc1Cl	-0.1	101	53	66	i	0.83	4
Cc1cc(C)n(-c2nc(N(c3ccccc3)c3ccccc3)nc(-n3nc(C)cc3C)n2)n1	-0.2	109	60	85	i	0.66	4
Cc1ccc(-c2nc(CS(=O)CC(=O)NCCN(CC(C)C)CC(C)C)c(C)o2)cc1 (configuration not stated)	-3.0	103	36	118	i	0.89	-3
CC(OC(=O)c1cccn1C)C(=O)Nc1ccc2c(c1)OCO2 (configuration not stated)	.	109	.	.	i	1	-4
O=C(CSc1nc2sc3c(c2c(=O)n1Cc1ccco1)CCC3)N1CCc2ccccc21	0.4	.	-37	101	.	.	-12
Cn1c(Cn2c(=O)sc3ccccc32)nnc1SCc1ccc(F)cc1	-0.2	102	.	.	i	1.2	-10
COc1ccccc1C1c2c(oc3ccc(Cl)cc3c2=O)C(=O)N1c1cc(C)on1 (configuration not stated)	0.1	.	33	60	.	.	-8
COc1cc(C)c(N)cc1C(C)C	-1.5	107	-20	245	i	1.1	-14
C/C(=N\NC(=O)c1nonc1N)c1cccs1	-1.4	109	13	60	i	1.2	0
CCc1cccc(CC)c1NC(=O)Cn1c(-c2ccc(F)cc2)noc1=O	.	97	-35	82	i	0.94	0
Cc1cccc(OCc2nnc(SCC(=O)Nc3sc(C)c(C)c3C#N)n2C)c1	-1.3	99	25	86	i	0.97	14
COc1ccc(CN(C(=O)c2oc3ccccc3c2C)C2CCS(=O)(=O)C2)cc1 (configuration not stated)	1.0	95	-41	160	i	1.1	-1
Cc1ccc(CN2CCN(Cc3cccc4c3OCO4)CC2CCO)cc1 (configuration not stated)	.	97	.	.	i	1.2	6
C/C(=N\NC(=O)c1nn(C)cc1Br)c1ccncc1	0.1	98	-31	93	i	1.2	-8
COc1cc(S(=O)(=O)NC2CCCC2)ccc1Cl	-0.1	105	59	79	i	0.85	4
CC1(C)CC(=O)C(CC(=O)N2CCC(Cc3ccccc3)CC2)C(=O)C1	.	101	.	.	i	0.93	8
CCOc1ccc(/C=N/Nc2ccccn2)cc1	.	86	-18	132	i	1.1	3
Cc1ccnc(NC(=O)CCc2c(C)nc3ncnn3c2C)c1	-0.9	103	0	89	i	0.85	-8
Fc1ccc(Cn2nnnc2CN2CCc3ccccc3C2)cc1	-2.1	107	-12	99	i	1	-10
COc1cc(/C=C2\SC(=S)N(Nc3ccccc3)C2=O)cc(OC)c1OC	-2.5	95	.	.	i	0.86	-8
O=C(NCCCN1CCOCC1)C(=O)N/N=C/c1c2ccccc2cc2ccccc12	-1.1	104	12	114	i	1	2
CCCCCCSc1nsc(NC(=O)CCC)n1	.	107	.	.	i	1	8
COc1cc(NC(=O)c2ccc(C)cc2)c(OC)cc1NC(=O)CN1CCCCC1	0.0	104	32	96	.	.	1
COC(=O)C1=C(C)NC(=O)/C1=C\c1cc(C)n(-c2ccccc2C)c1C	-1.8	101	71*	163*	?	.	2
O=C(NCc1ccccc1)C12CC3CC(CC(C3)C1)C2	-2.2	105	-29	92	i	0.88	8

Remaining list, next part.
SMILES	GALR2 agonist	RGS16-Gao	INS promoter inh	INS promoter inh cell count	HSV augment	HSV augment primary fold	PKD1 inh
COc1ccc(Cl)cc1N(C)C(=O)CCNC(=O)Cn1cnc2ccccc2c1=O	-3.6	108	.	.	i	0.69	5
CC(=O)N(c1ccc2oc(=O)sc2c1)S(=O)(=O)c1cccs1	-2.8	115	0	103	i	1	3
COc1cc(C(=O)Nc2c(C)cc(C)cc2C)c(Br)c(OC)c1OC	.	97	.	.	i	0.91	-4
CCOc1cc(C(=O)N/N=C/C(Br)=C/c2ccccc2)cc(OCC)c1OCC	3.3	98	.	.	i	0.72	-4
CC(=O)Nc1ccc(/C=N/NC(=S)NC(C)C)cc1	.	102	50	134	i	0.94	-3
CCN(CC)C(=O)c1ccc(O)c(OC)c1	0.2	111	18	116	i	0.61	-8
CCOc1ccc(CNC(=O)c2ccc(Sc3ccc(Cl)cc3)c(NC(C)=O)c2)cc1	-0.9	118	12	72	i	0.87	-10
NC(=O)c1ccc(/C(N)=N/S(=O)(=O)c2cc(C(F)(F)F)cc(C(F)(F)F)c2)cc1	.	103	.	.	i	0.85	.
COc1cc2c(cc1NC(=O)C(c1ccccc1)c1ccccc1)CCCC2	-0.8	106	-63	105	i	1.2	-10
COc1ccc(Oc2ccc(C(F)(F)F)cc2NC(=O)c2ccc(C)cc2)cc1	.	105	.	.	i	0.97	.
CC(=O)Oc1ccc2occ(C(=O)c3cccs3)c2c1	-1.5	101	17	109	i	0.9	11
CC1(C)OC(=O)C(=CNn2cnc3ccccc3c2=O)C(=O)O1	-1.5	95	82*	78*	i	1.1	-10
CC(=O)Oc1ccc(CCC(C)OC(C)=O)cc1 (configuration not stated)	-3.0	106	10	140	i	1	-7
COc1cccc(CNC(=O)C2CCN(S(=O)(=O)N3CCC4(CC3)OCCO4)CC2)c1	-1.1	119	-172	105	i	0.96	-5
CC1(C)Oc2ccc3ccc(=O)oc3c2/C(=C/NC2CCCCC2)C1=O	-0.5	103	-38	130	i	0.85	3
O=C(CN(Cc1ccccc1)S(=O)(=O)c1ccccc1)N/N=C/c1ccccc1C(=O)O	.	105	.	.	i	0.99	3
Cc1sc(NC(=O)COc2ccccc2)c(C#N)c1-c1ccccc1	-0.9	128	30	83	i	1	-10
CCOC(=O)N1CCC(NC(=O)Cn2cc3c(n2)CCC(C)C3)CC1 (configuration not stated)	-0.8	94	4	125	i	0.98	8
O=C1NN=C(c2ccc(Cl)cc2)CC1c1cccc(Cl)c1 (configuration not stated)	-1.5	104	.	.	i	0.95	-8
COc1ccc(CC(=O)NC(=S)NNC(=O)COc2c(C)cccc2C)cc1	-1.2	96	31	87	i	0.94	-1
O=C(CSc1ccsc1[N+](=O)[O-])NCc1ccco1	.	101	.	.	i	1.1	3
CCN1c2ccccc2N(C)C1(C)c1ccccc1 (configuration not stated)	-0.9	99	10	53	i	0.99	0
COC(=O)c1cccc(C23CC4(C2)[C@H](CN(C)[C@@H]4c2ccccc2)C3c2ccccc2)c1 (some centres not stated)	.	101	.	.	i	1	.
Cc1cc(NC(=O)CCC(=O)N(Cc2ccco2)C(C(=O)NC2CCCCC2)c2cccs2)no1 (configuration not stated)	.	101	.	.	i	1	-8
CC(O/N=C\c1ccccc1O)C(=O)Nc1ccccc1C(=O)N1CCOCC1 (configuration not stated)	0.2	102	-47	110	i	0.95	0

Ordered by number of heavy atoms (lowest first): part of the list above.
SMILES	GALR2 agonist	RGS16-Gao	INS promoter inh	INS promoter inh cell count	HSV augment	HSV augment primary fold	PKD1 inh
CCN1c2ccccc2N(C)C1(C)c1ccccc1 (configuration not stated)	-0.9	99	10	53	i	0.99	0
CC(=O)Oc1ccc2occ(C(=O)c3cccs3)c2c1	-1.5	101	17	109	i	0.9	11
CCOC(=O)N1CCC(NC(=O)Cn2cc3c(n2)CCC(C)C3)CC1 (configuration not stated)	-0.8	94	4	125	i	0.98	8
CCOc1cc(C(=O)N/N=C/C(Br)=C/c2ccccc2)cc(OCC)c1OCC	3.3	98	.	.	i	0.72	-4
COc1cccc(CNC(=O)C2CCN(S(=O)(=O)N3CCC4(CC3)OCCO4)CC2)c1	-1.1	119	-172	105	i	0.96	-5
COC(=O)c1cccc(C23CC4(C2)[C@H](CN(C)[C@@H]4c2ccccc2)C3c2ccccc2)c1 (some centres not stated)	.	101	.	.	i	1	.

Given in markdown: 2 of the compounds above.
| Molecule | GALR2 agonist | RGS16-Gao | INS promoter inh | INS promoter inh cell count | HSV augment | HSV augment primary fold | PKD1 inh |
| --- | --- | --- | --- | --- | --- | --- | --- |
| COc1ccc(CC(=O)NC(=S)NNC(=O)COc2c(C)cccc2C)cc1 | -1.2 | 96 | 31 | 87 | i | 0.94 | -1 |
| O=C(CSc1ccsc1[N+](=O)[O-])NCc1ccco1 | . | 101 | . | . | i | 1.1 | 3 |

Next section.
SMILES	GALR2 agonist	RGS16-Gao	INS promoter inh	INS promoter inh cell count	HSV augment	HSV augment primary fold	PKD1 inh
CC1CN(C(=O)c2ccc(COc3ccccc3Br)o2)CC(C)O1 (configuration not stated)	.	101	.	.	i	0.8	-6
c1cc2c3c(cccc3c1)C(N1CCOCC1)=N2	.	111	.	.	i	1.1	.
COc1ccc(NC(=O)C2CCCN2S(=O)(=O)c2ccc(F)cc2)cc1 (configuration not stated)	-0.5	104	.	.	i	0.96	-1
CCc1ccc(NC(=O)C(C)OC(=O)/C=C/c2cccc([N+](=O)[O-])c2)cc1 (configuration not stated)	-0.2	108	.	.	i	1.1	19
COc1ccc(CN2CCNC(=O)C2CC(=O)N2CCc3ccccc3C2)c(OC)c1 (configuration not stated)	.	117	.	.	i	0.99	-3
O=C1NC(c2ccccc2)=NC1(NS(=O)(=O)c1ccc(Cl)cc1)C(F)(F)F (configuration not stated)	-0.8	117	34	114	i	0.9	-5
CCNC(=O)/C(=C\C=C\c1ccccc1)NC(=O)c1ccc(Br)o1	-0.1	102	17	154	i	0.98	15
COc1cccc(CN(C)C(=S)Nc2ccc(C)c(C)c2)c1	.	112	6	114	i	0.93	3
CCCCCCCCCCS(=O)(=O)N/N=C/c1ccccc1OC	-0.6	99	26	116	i	0.97	-5
COC(=O)c1ccccc1NC(=O)c1ccccc1SC	-2.0	99	-21	134	i	1	29
CCOC(=O)NC(NC(=S)Nc1ccc(OC)cc1)C(Cl)(Cl)Cl (configuration not stated)	-0.1	115	-42	134	i	0.82	-6
